# High-throughput results: PubChem, National Center for Advancing Translational Sciences (NCATS)
# A549 tox = A549 cytotoxicity, counter-screen for Nrf2 inhibitors. A549 ARE-Fluc cells, CellTiter-Fluor viability, 18-24 h. Potency, µM (titrated, usually from 46 µM), for inactives: top-dose activity change, negative = cytotoxicity, most hits filed as inhibitors. actives 0.16% (n = 390,000). AID 504648; further: on the % scale 0 is the no-effect control and ±100 the full control effect
#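 A549 ARE-Fluc cells in 5% FBS OPTI-MEM, 5000 cells/well, rested 2 h then exposed to compounds in concentration-response for 18-24 h at 37 °C. Viability by CellTiter-Fluor fluorescence (Ex 405/Em 525) after 30 min; luciferase luminescence (BugLite, 15 min, RT) read afterwards.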
# S2 tox = viability counter-screen for ATXN expression inhibitors | S2 cells (HEK-293 line with an ATXN2-luciferase reporter) viability, CellTiter-Fluor protease fluorescence, 24 h | Potency, µM (series often up to 56.7 µM), actives largely listed as cytotoxic | actives 0.49% (n = 400,000); further: nearly all actives have a fitted effect of over 40% in size
# ATXN2 expr inh = ATXN2 expression inhibition. HEK-293 ATXN2-luciferase reporter, luminescence, 24 h. Potency, µM (titrated, usually from 57 µM), for inactives: top-dose activity change, negative = inhibition, actives largely listed as inhibitors. actives 0.72% (n = 360,000). AID 1745845; further: on the % scale 0 is the no-effect control and ±100 the full control effect; nearly all actives have a fitted effect of over 55% in size
#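 ATXN2-luciferase reporter cells (luciferase flanked by upstream and downstream ATXN2 gene portions) were treated 24 h at 37 °C with compounds at up to 57 uM. SteadyGlo luminescence gave expression; GF-AFC fluorescence gave viability.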
# HepG2 tox = HepG2 cytotoxicity, counter-screen for TGF-b inhibitors | Potency, µM (top dose mostly 46.1 µM), without a hit: at the highest dose activity change, negative = cytotoxicity, usual class: cytotoxic | actives 0.76% (n = 410,000) | HepG2 CAGA-GFP viability, ATP luminescence, 18 h; further: some results filed as inactive show a strong effect at the top dose
#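 CellTiter-Glo luminescence gave cytotoxicity after 18 hours at 37 degrees C. The cells were HepG2 CAGA-GFP in 1% FBS DMEM, stimulated with 500 pg/mL TGF-beta after compound addition. %Activity was normalised to no-cell wells (complete cell-killing) and DMSO (no toxicity), and curves were fitted and classified.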
# TGFb inhibitor = TGF-b pathway inhibition | HepG2 CAGA-GFP TGF-b/SMAD3 reporter, GFP fluorescence, 18 h; TGF-beta stimulated, 500 pg/mL final | Potency, µM (highest dose often 46.1 µM), without a hit: at the highest dose activity, negative = inhibition, hits mostly inhibitors | actives 1.2% (n = 410,000) | AID 588855; further: on the % scale 0 is the no-effect control and ±100 the full control effect; nearly all actives have a fitted effect of over 65% in size
#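 Per well, imaged GFP fluorescence of HEPG2 CAGA-GFP cells gives the signal; cells get compound, then TGF-beta (500 pg/mL final), 18 h at 37 degrees C; %Activity versus -TGF-beta and +DMSO controls.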
# The depositor's hits bear a star; i = inactive; ? = inconclusive; . = no result given; & = joins results of further samples. The call rests on the fitted dose curve; in most records, active means well fitted curve in the direction sought with a large enough effect; inconclusive means small, poorly fitted or top-dose-only effect, or another doubt; inactive means no such curve, though single readings can be large; an effect the other way counts as inactive or inconclusive. Potency means the concentration at half of the fitted maximal effect.
# The first three compounds, ahead of the listing:
SMILES,A549 tox,S2 tox,ATXN2 expr inh,HepG2 tox,TGFb inhibitor
O=C(/C=C/c1ccco1)Nc1ccc(F)cc1,-3.6%,.,.,-12.1%,.
O=C(CCCN1CCC(O)(c2ccc(Cl)cc2)CC1)c1ccc(F)cc1,-10.1%,i,?,-54.0%,-0.7%
COc1cc(Cc2cnc(N)nc2N)cc(OC)c1OC,3.1%&-1.2%,i,5.4%&10.7%&26.7%,-11.0%&-0.8%&-4.6%,22.3%&15.4%&2.5%

# All compounds of this part, from the start:
SMILES,A549 tox,S2 tox,ATXN2 expr inh,HepG2 tox,TGFb inhibitor
O=C(/C=C/c1ccco1)Nc1ccc(F)cc1,-3.6%,.,.,-12.1%,.
O=C(CCCN1CCC(O)(c2ccc(Cl)cc2)CC1)c1ccc(F)cc1,-10.1%,i,?,-54.0%,-0.7%
COc1cc(Cc2cnc(N)nc2N)cc(OC)c1OC,3.1%&-1.2%,i,5.4%&10.7%&26.7%,-11.0%&-0.8%&-4.6%,22.3%&15.4%&2.5%
COc1ccc(Nc2nc(Nc3ccc(OC)cc3)nc(SC3=NCCS3)n2)cc1,-27.9%,i,-26.2%,0.3%,0.0%
CC[C@H](C)C(=O)O[C@@H]1C[C@H](C)C=C2C=C[C@H](C)[C@@H](CC[C@H]3C[C@@H](O)CC(=O)O3)[C@H]21,.,i,.,.,.
CC(C)NCC(O)COc1cccc2[nH]ccc12 (configuration not stated),.,i,10.3%,.,.
CC(CN1CC(=O)NC(=O)C1)N1CC(=O)NC(=O)C1 (configuration not stated),.,i,.,-40.6%&2.8%,-9.8%&-27.1%
Cc1nc2nc(NCc3cccc(Br)c3)[nH]n2c(=O)c1Cc1ccccc1,-1.3%,i,8.2%,-1.4%,18.7%

# Four compounds drawn at random from those above, as already listed:
SMILES,A549 tox,S2 tox,ATXN2 expr inh,HepG2 tox,TGFb inhibitor
Cc1nc2nc(NCc3cccc(Br)c3)[nH]n2c(=O)c1Cc1ccccc1,-1.3%,i,8.2%,-1.4%,18.7%
CC[C@H](C)C(=O)O[C@@H]1C[C@H](C)C=C2C=C[C@H](C)[C@@H](CC[C@H]3C[C@@H](O)CC(=O)O3)[C@H]21,.,i,.,.,.
O=C(CCCN1CCC(O)(c2ccc(Cl)cc2)CC1)c1ccc(F)cc1,-10.1%,i,?,-54.0%,-0.7%
CC(C)NCC(O)COc1cccc2[nH]ccc12 (configuration not stated),.,i,10.3%,.,.

# Some of the compounds tested; the hit share may differ from the screen's.
